Marburg entry inh: inhibitors of Marburg virus binding or cell entry; Marburg virus pseudotyped entry inhibition, cell reporter; control for the full effect not named in the record; about a third of the inactives were read at about 46 µM; Potency, µM (top dose mostly 37.8 µM), inactives show at the top dose activity change, negative = inhibition, actives largely listed as inhibitors; 300,000 compounds, 1.8% hits; active = well fitted inhibition curve with a large enough effect; inconclusive = small, poorly fitted or top-dose-only effect, or effect the other way; inactive = flat fitted curve, though single readings scatter; tested in HEK293 cells; about a fifth of its hits are not listed in these tables; note: % is set by controls: 0 for no effect and ±100 for the full control effect; luciferase read-out
Cruzain noTriton: blocks cruzain activity in detergent-free assay; P25779; purified cruzain, Z-FR-AMC fluorescence, no detergent; Potency, µM, inactives show max response, negative = inhibition, hits mostly inhibitors; 200,000 compounds, 2.3% hits; active = well fitted curve in the direction sought with a large enough effect; inconclusive = small, poorly fitted or top-dose-only effect, or another doubt; inactive = no such curve, though single readings can be large; an effect the other way counts as inactive or inconclusive;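 note: plate controls were enzyme without inhibitor for no effect and buffer without enzyme for full effect; nearly all actives have a fitted effect of over 40% in size; top concentration of the series not given in the record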
Target sequence (P25779 123-467 limits assumed): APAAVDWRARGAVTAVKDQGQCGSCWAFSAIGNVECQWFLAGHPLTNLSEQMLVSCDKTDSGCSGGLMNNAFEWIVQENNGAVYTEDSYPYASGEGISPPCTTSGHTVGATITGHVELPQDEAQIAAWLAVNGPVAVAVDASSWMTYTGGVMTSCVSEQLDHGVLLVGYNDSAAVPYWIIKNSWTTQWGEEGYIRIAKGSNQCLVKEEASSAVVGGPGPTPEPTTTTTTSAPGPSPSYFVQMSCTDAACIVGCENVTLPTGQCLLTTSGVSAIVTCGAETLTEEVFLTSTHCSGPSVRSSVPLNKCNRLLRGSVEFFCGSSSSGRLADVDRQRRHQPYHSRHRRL
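Detergent-free condition (0.00005% Triton X-100) in acetate buffer pH 5.5 with DTT. 1.5 nM enzyme and compound were pre-mixed 15 min, then 2 uM Z-FR-AMC substrate added; reaction progress from fluorescence change between first and third reads (60 s).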
SARS PLpro yeast: inhibitors of SARS-CoV papain-like protease in yeast. S. cerevisiae expressing SARS-CoV PLpro, growth rescue; control for the full effect not named in the record. Potency, µM (highest dose often 32.9 µM), inactives show top-dose activity, positive = growth rescue. 330,000 compounds, 0.19% hits. AID 485353; note: 0% is about no effect; nearly all actives have a fitted effect of over 55% in size; growth read by luminescence after 48 h
RE007 growth inh: less growth of the S. pombe RE007 Vpr strain; S. pombe RE007 Vpr strain, BacTiter-Glo ATP luminescence, 24 h; control for the full effect not named in the record; 360,000 compounds, 0.21% hits; Potency, µM (highest dose often 92.2 µM), for inactives: top-dose activity change, negative = less growth; active = well fitted falling curve with a large enough effect; inconclusive = small, poorly fitted or top-dose-only effect; inactive = no such curve, though single readings can be large or run the other way;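 note: % is set by controls: 0 for no effect and ±100 for the full control effect; nearly all actives have a fitted effect of over 50% in size; the assay follows cell death caused by Vpr and the record does not say whether a fall means rescue or toxicity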
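Fission yeast RE007 carrying one integrated HIV-1 vpr copy, seeded at OD 0.01 in PMG+AL medium with 23 nL pinned compound. Grown 24 h at 30 degrees; viability read by BacTiter-Glo luminescence after 5 min.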
Lassa entry inh: inhibitors of Lassa virus binding or cell entry; Lassa virus pseudotype entry inhibition, cell reporter; control for the full effect not named in the record; Potency, µM (doses to about 37.9 µM), inactives show top-dose activity change, negative = inhibition, most hits filed as inhibitors; 300,000 compounds, 1.2% hits; active means well fitted inhibition curve with a large enough effect; inconclusive means small, poorly fitted or top-dose-only effect, or effect the other way; inactive means flat fitted curve, though single readings scatter; tested in HEK293 cells; note: % is set by controls: 0 for no effect and ±100 for the full control effect; nearly all actives have a fitted effect of over 50% in size; luciferase read-out
Cruzain inh Det: blocks cruzain activity in presence of Triton detergent; P25779; purified cruzain, Z-FR-AMC fluorescence, 0.01% Triton; Potency, µM, without a hit: max response, negative = inhibition, actives largely listed as inhibitors; 200,000 compounds, 0.43% hits; AID 1478; active = well fitted curve in the direction sought with a large enough effect; inconclusive = small, poorly fitted or top-dose-only effect, or another doubt; inactive = no such curve, though single readings can be large; an effect the other way counts as inactive or inconclusive;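 note: plate controls were neutral wells for no effect and buffer without enzyme for full effect; nearly all actives have a fitted effect of over 40% in size; top concentration of the series not given in the record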
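In this qHTS format, compounds are incubated with 1.5 nM cruzain for 15 min at room temperature before 2 uM Z-FR-AMC is added. Release of AMC is followed at 360/450 nm, and progress is taken as the 60 s fluorescence difference.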
NS1 inh: influenza NS1 inhibition; S. cerevisiae slowed by influenza A NS1, growth recovery by OD600; Potency, µM (doses to about 46.1 µM), for the others: top-dose activity, positive = more growth; 270,000 compounds, 0.4% hits; note: actives are rising curves; nearly all actives have a fitted effect of over 50% in size
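A cell-based growth assay was used: compounds that relieve NS1-induced slow growth of budding yeast raise OD600. Assay medium was yeast nitrogen base with ammonium sulphate and -URA supplement, pH 6.0, with 2% galactose.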
2A StopGo: lowers the luciferase signal of an FMDV 2A StopGo reporter. 410,000 compounds, 1.2% hits. Potency, µM (highest dose often 57.9 µM), inactives show top-dose signal change, negative = less light. human cells with a luciferase reporter of 2A StopGo recoding; control for the full effect not named in the record; active = well fitted falling curve with a large enough effect; inconclusive = small, poorly fitted or top-dose-only effect; inactive = no such curve, though single readings can be large or run the other way; tested in HEK293T cells; note: % is set by controls: 0 for no effect and ±100 for the full control effect; nearly all actives have a fitted effect of over 45% in size; luciferase light after 4 h
Starred values were filed as active, the others as inactive; ? = inconclusive; . = not tested or not shown; & = joins results of further samples; [ ] = dose if it differs, or a comment. Unless noted, calls come from the whole dose curve; as a rule, active means well fitted rising curve with a large enough effect; inconclusive means small, poorly fitted or top-dose-only effect; inactive means no such curve, though single readings can be large or run the other way. Potency is the fitted concentration of half-maximal effect.

Compound	SARS PLpro yeast	Cruzain inh Det	Marburg entry inh	2A StopGo	Cruzain noTriton	Lassa entry inh	RE007 growth inh	NS1 inh
CC(Oc1ccccc1)C(=O)Nc1cccc([N+](=O)[O-])c1 (stereo not given)	-1%	.	-20%[46.1 µM]	0%	.	.	-3%	-6%
COc1ccc(Cc2c(N)nc(N)nc2N)cc1	-1%	3.6%	14%	0%	-4%	22%	-2%	-24%
O=C(Cn1c(=O)c2cccn2c2cccnc21)NCCCN1CCN(c2ccc(F)cc2)CC1	-6%	.	.	-6%	.	.	-8%	-1%
CC(C)c1nnc(NC(=O)CCC(=O)NCC2CCCO2)s1 (stereo not given)	0%	2.3%	?	4%	9%	3%	-20%	-9%
O=C(NCCCN1CCOCC1)c1cc(-c2ccccc2F)no1	-1%	.	.	46%[activator]	.	.	-7%	-10%
Cc1sc(NC(=O)CSc2nnnn2C2CCCC2)c(C#N)c1C	-9%	-4.4%	?	.	-7%	?	5%	1%
O=C(Nc1ccon1)c1cccc(Cl)c1	-4%	-0.5%	2%	39%[activator]	2%	-13%	3%	2%
O=C(NC1CCCCC1)NC1CC2CCC(C1)N2Cc1nnnn1Cc1ccc2c(c1)OCO2 (stereo not given)	5%	3.2%	1%	?	2%	?	9%	2%

Another view of part of the listing above:
molecule: CC(C)c1nnc(NC(=O)CCC(=O)NCC2CCCO2)s1 (stereo not given)
  SARS PLpro yeast: 0%; Cruzain inh Det: 2.3%; Marburg entry inh: ?; 2A StopGo: 4%; Cruzain noTriton: 9%; Lassa entry inh: 3%; RE007 growth inh: -20%; NS1 inh: -9%

molecule: O=C(NCCCN1CCOCC1)c1cc(-c2ccccc2F)no1
  SARS PLpro yeast: -1%; Cruzain inh Det: .; Marburg entry inh: .; 2A StopGo: 46%[activator]; Cruzain noTriton: .; Lassa entry inh: .; RE007 growth inh: -7%; NS1 inh: -10%

molecule: Cc1sc(NC(=O)CSc2nnnn2C2CCCC2)c(C#N)c1C
  SARS PLpro yeast: -9%; Cruzain inh Det: -4.4%; Marburg entry inh: ?; 2A StopGo: .; Cruzain noTriton: -7%; Lassa entry inh: ?; RE007 growth inh: 5%; NS1 inh: 1%

molecule: O=C(Nc1ccon1)c1cccc(Cl)c1
  SARS PLpro yeast: -4%; Cruzain inh Det: -0.5%; Marburg entry inh: 2%; 2A StopGo: 39%[activator]; Cruzain noTriton: 2%; Lassa entry inh: -13%; RE007 growth inh: 3%; NS1 inh: 2%

Returning to the listing; the 2 compounds before the break are reprinted first.
Compound	SARS PLpro yeast	Cruzain inh Det	Marburg entry inh	2A StopGo	Cruzain noTriton	Lassa entry inh	RE007 growth inh	NS1 inh
O=C(Nc1ccon1)c1cccc(Cl)c1	-4%	-0.5%	2%	39%[activator]	2%	-13%	3%	2%
O=C(NC1CCCCC1)NC1CC2CCC(C1)N2Cc1nnnn1Cc1ccc2c(c1)OCO2 (stereo not given)	5%	3.2%	1%	?	2%	?	9%	2%
COc1cc(C2SC[C@H]3C(=O)N(c4ccccc4)C(=O)N23)cc(OC)c1OC (stereo not given in full)	.	-1.4%	-3%[46.1 µM]	?	-5%	-3%[46.1 µM]	.	.
N#CCN1C(=O)NC2(CCCc3sccc32)C1=O (stereo not given)	14%	.	-10%[46.1 µM]	1%	.	12%[46.1 µM]	-8%	5%
CN(c1ccc(C(=O)NCCc2ccccc2)cc1)S(C)(=O)=O	-3%	-1.2%	?	-32%	2%	?	-1%	4%
COc1ccc(NC(=O)c2cnn(-c3ccccc3)c2C)cc1OC	-8%	.	2%	19%	.	-4%	-5%	-23%
O=C(c1ccccc1)c1cnc(-c2ccc(Cl)cc2)s1	9%	1.3%	-13%	-9%	-10%	-2%	-6%[3.69 µM]	7%
COc1ccc(C)cc1S(=O)(=O)N1CCC2(CC1)OCCN2S(=O)(=O)c1cccs1	2%	.	3%	21%	.	-17%	2%	.
COC(=O)N[C@H](CC(C)=O)c1cccc(C(F)(F)F)c1	8%	0.7%	0%	-5%	-11%	6%	6%	-17%
CC(c1nnc(SCn2nnc3ccccc3c2=O)n1-c1ccc(Cl)cc1)N(C)C (stereo not given)	8%	0.2%	26%	.	-1%	-2%	5%	0%
O=C(CC1C(=O)NCCN1C/C=C/c1ccccc1)NCCCC1CCCC1 (stereo not given)	-1%	.	3%[46.1 µM]	-13%	.	-1%[46.1 µM]	3%	2%
COc1cccc(-n2c(=S)sc3c(=O)n(-c4ccccc4OC)c(SCC4OCCO4)nc32)c1	1%	.	?	9%	.	-4%[46.1 µM]	10%	.
CC1(c2ccc(Cl)cc2)NC(=O)N(CC(=O)Nc2ccc(N3CCCCC3)cc2)C1=O (stereo not given)	0%	.	-16%	-15%	.	14%	-18%	.
Cc1onc(NC(=O)NC(=O)c2c(Cl)cccc2Cl)c1Br	-1%	.	.	-25%	.	.	9%	8%
COc1cccc(OCc2nnc(SCc3cc(=O)[nH]c4ccccc34)o2)c1	-1%	.	?	?	.	?	6%	-10%
CC(C)(C)NC(=O)NC(=O)COC(=O)c1nc(-c2ccccc2)n(-c2cccc(C(F)(F)F)c2)n1	1%	-8.5%	4%	-2%	?	1%	-4%	-8%
Cc1cccc(N2CCN(C(=O)COc3ccc4c(c3)CCC4)CC2)c1C	-59%	-7.3%	12%	-15%	6%	-10%	.	-6%
Cn1c(N)c(C(=O)CSc2nc3ccccc3n2-c2ccccc2)c(=O)n(C)c1=O	3%	4.4%	5%&5%	?	-14%	7%	-7%	-14%
CSC1=C(C#N)C(CC(C)C)C(C(C)=O)=C(C)N1 (stereo not given)	-3%	4.5%	-1%	-13%	-4%	-16%	22%	-7%
Cc1nnc(-c2ccc(N3CCCCCC3)c([N+](=O)[O-])c2)o1	0%	.	.	6%	.	.	7%	-6%
COc1ccccc1NC(=O)COC(=O)C12CC3CC(CC(Cl)(C3)C1)C2	0%	.	17%[46.1 µM]	-21%	.	0%[46.1 µM]	28%	-6%
CCCn1c(SC(C)C(=O)O)nc2ccccc21 (stereo not given)	21%[6.58 µM]	5.1%	4%	-9%	-8%	11%	-7%	-1%
CCC1CO/C(=C(\C(=C(Cl)Cl)N2CCOCC2)[N+](=O)[O-])N1 (stereo not given)	0%	.	-18%[46.1 µM]	-11%	.	0%[46.1 µM]	-17%	-1%
CCOc1ccc(N2C(=O)C3ON(c4ccccc4)C(c4ccco4)C3C2=O)cc1 (stereo not given)	-5%	.	-3%[46.1 µM]	-6%	.	8%	8%	.
O=C(Nc1ccc2c(c1)OCCO2)c1c(F)c(F)c(F)c(F)c1F	4%	-4.6%	0%	16%	-6%	13%	-19%	-4%
COc1ccc(NC(=O)c2c(C)oc3ccc(O)c(CN4CCN(Cc5ccccc5)CC4)c23)cc1Cl	.	-8.2%	?	-19%	-21%	7.9µM*	.	.
c1ccn(-c2ccc(-c3ccn[nH]3)cc2)c1	-3%	.	?	47%[activator]	.	11%	?	.
CCN(CC)S(=O)(=O)c1nnc(NC(=O)c2ccc(C(C)C)cc2)s1	.	-1.7%	.	-25%	17%	?	.	.
COc1ccc(NC(=O)CSc2nc3nc(C)c(Cc4ccccc4Cl)c(C)n3n2)cc1OC	.	-0.2%	.	-13%	?	?	.	.
O=S(=O)(c1ccc(Br)c2ccccc12)N1CCCC1	-2%	.	-26%	-18%	.	1%	-25%	-13%
Cc1c(C(=O)O)c(C(=O)O)c2n1CCS2	1%	.	8%[46.1 µM]	-16%	.	9%[46.1 µM]	-17%	2%
Cc1ccc(C(=O)CCNc2ccc(Cl)cc2)o1	7%	3.4%	?	16%	0%	0%	-22%	-13%
CS(=O)(=O)Nc1ccc(OCc2ccccc2)cc1	5%	-0.3%	18%	0%	-4%	-1%	-3%	0%
C/C(=N\NC(=O)OC(C)(C)C)c1ccc[nH]1	-3%	.	?	25%	.	-25%	-9%	-4%
COCCCNC(=O)c1cc2c(=O)n3cccc(C)c3nc2s1	-2%	-3.1%	18%&-4%[46.1 µM]	-17%&31%	2%	12%&4%[46.1 µM]	-2%	-3%
COc1ccc(OCC(=O)OCC(=O)N2CC(=O)Nc3ccccc32)cc1	0%	.	.	-8%	.	.	1%	0%
Cc1c(NC(=O)Cn2nc(C(=O)O)c3ccccc3c2=O)c(=O)n(-c2ccccc2)n1C	-8%	-2.9%	5%&5%	-18%	-1%	?	3%	-1%
Cc1cc(C(=O)N2CCN(S(=O)(=O)c3ccccc3F)CC2)c(C)o1	1%	.	20%[46.1 µM]	-9%	.	-12%[46.1 µM]	8%	4%
CC(=O)Nc1ccc(C(=O)CSc2nnc3cc(C)c4ccccc4n23)cc1	.	-0.5%	4%[46.1 µM]	-15%	-6%	10%[46.1 µM]	.	.
Oc1c(C=NCc2ccccc2)sc2ccccc12	-1%	.	2%[46.1 µM]	23%	.	-15%	-27%	-9%
Cc1cc(C)cc(N(C(C)C(=O)Nc2c(C)n(C)n(-c3ccccc3)c2=O)S(C)(=O)=O)c1 (stereo not given)	0%	4.4%	3%&3%[46.1 µM]	-11%	6%	10%	16%	-1%
O=C(Cc1nc(-c2ccc([N+](=O)[O-])cc2)cs1)Nc1ccccc1	-9%	-3.3%	4%	?	?	-2%	-14%	9%
CCC(=O)Nc1nnc(SCc2ccccc2F)s1	-2%	.	1%[46.1 µM]	11%	.	-15%	13%	.
COc1cccc(C(=O)OC(C)CN2CCCC2)c1 (stereo not given)	-3%	4.9%	13%	-24%	7%	17%	29%	-6%
COc1cc(OC)cc(C(=O)N[C@H](C(=O)OCC(=O)c2ccc(F)cc2)C(C)C)c1	9%	.	?	22%	.	-19%	-9%	.
COc1ccc(/C(O)=C2\C(=O)C(=O)N(c3cc(C)on3)C2c2ccccc2OC)cc1C (stereo not given)	-8%	-5.8%	-3%	-2%	9%	-10%	7%	10%

High-throughput results from PubChem.

Rows are unselected (roughly 4.8% active in at least one column).
